# Insulin prom inh: TRM-6 insulin promoter activity inhibition; inhibition, % at 2 µM; 130,000 tested, 0.9% active; TRM-6 cells (human fetal islet line), insulin promoter-eGFP reporter, imaging; reporter expression induced with tamoxifen; AID 1273;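 active means inhibition above the mean plus 3 SD, with well images judged a real hit on visual review, cut at about 60% in these data, passing the limit was not always enough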
# RGS16-Gao: modulates binding between human RGS16 and Galphao; bead-based flow cytometry RGS16-Galphao binding, fluorescence; actives lie on both sides; binding response (% of control), % at 10 µM; 220,000 tested, 0.38% active; AID 1441;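 active means below 25% or above 175%, edge rows of some plates excepted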;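 further: Galphao activated by GDP with aluminum fluoride before binding; 100% = wells without compound and 0% = beads without RGS; some results beyond the cut were filed as inactive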
# Target sequence (O15492 whole entry, looked up): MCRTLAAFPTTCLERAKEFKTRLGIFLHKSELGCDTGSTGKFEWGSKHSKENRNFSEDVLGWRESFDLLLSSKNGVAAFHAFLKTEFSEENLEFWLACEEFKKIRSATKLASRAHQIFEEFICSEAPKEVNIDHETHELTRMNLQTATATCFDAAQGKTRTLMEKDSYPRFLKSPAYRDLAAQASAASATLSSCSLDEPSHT
# Target sequence (P09471 whole entry, looked up): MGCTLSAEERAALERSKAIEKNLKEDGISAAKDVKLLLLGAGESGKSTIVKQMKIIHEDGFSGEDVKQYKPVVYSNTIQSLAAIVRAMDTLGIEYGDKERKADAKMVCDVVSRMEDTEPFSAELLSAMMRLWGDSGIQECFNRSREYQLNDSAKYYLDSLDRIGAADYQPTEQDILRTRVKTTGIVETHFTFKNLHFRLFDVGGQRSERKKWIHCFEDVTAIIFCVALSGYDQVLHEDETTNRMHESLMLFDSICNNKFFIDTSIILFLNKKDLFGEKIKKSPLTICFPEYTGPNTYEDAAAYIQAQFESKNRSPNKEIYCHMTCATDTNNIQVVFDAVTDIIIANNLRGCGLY
# PKD1 inh: blocks activity of human protein kinase D1 | PKD1 kinase fluorescence polarization assay | inhibition, %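 (about 10 µM by stock and volumes)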 | 200,000 tested, 0.056% active;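 active means inhibition of 50% or more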;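 further: controls were vehicle for no effect and a reference inhibitor for full effect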
# HSV augment: HSV replication enhancement. HSV replication augmentation in cells, fold increase. maximum fold increase. 220,000 tested, 0.005% active. AID 1956;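 active means peak rise of 1.5-fold or more in the series; tested in PC3 cells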;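 further: first round at 10 µM; read as green reporter fluorescence; hits show the peak of a series up to 25 µM; 1 = signal of infected wells without compound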
# GALR2 ag: agonists of human galanin receptor 2 (GALR2) | 140,000 tested, 0.48% active | AID 803 | O43603 | GALR2-expressing cells, agonist activation read-out | activation, %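 (tested at 5 µM)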;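 active means above mean plus 3 SD of all compounds, about 5% in these data, not always enough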;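 further: 0% = vehicle buffer wells and 100% = reference agonist at full effect; tested in CHO reporter cells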
# Target sequence (O43603 whole entry, looked up): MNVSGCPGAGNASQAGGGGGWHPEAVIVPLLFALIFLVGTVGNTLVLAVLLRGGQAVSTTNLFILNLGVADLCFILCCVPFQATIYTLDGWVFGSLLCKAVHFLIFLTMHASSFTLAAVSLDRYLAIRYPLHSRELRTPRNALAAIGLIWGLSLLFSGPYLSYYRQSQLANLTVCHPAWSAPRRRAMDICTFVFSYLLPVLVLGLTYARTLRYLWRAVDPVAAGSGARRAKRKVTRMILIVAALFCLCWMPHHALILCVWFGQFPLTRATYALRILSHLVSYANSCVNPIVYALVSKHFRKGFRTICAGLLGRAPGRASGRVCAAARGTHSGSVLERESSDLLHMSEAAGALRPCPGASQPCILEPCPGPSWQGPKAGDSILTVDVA
# Insulin prom inh cell count: further read-out of Insulin prom inh, marked with its call; normalized cell count, %; measured here: cell count, toxicity; reference of the scale not given here;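 cells exposed to compound for 48 h; stained nuclei by imaging scaled within each plate; lower means fewer cells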
# HSV augment primary fold: second read-out of HSV augment, no call of its own (marks repeat the call); fold increase; compound at 10 µM; measured here: primary screen fold increase 10 uM; tested in PC3 cells;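 GFP signal in the first replicate; 1 = infected wells without compound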
# Active calls of the source: *; i = inactive; nt = no result given.
SMILES	Insulin prom inh	Insulin prom inh cell count	RGS16-Gao	PKD1 inh	HSV augment	HSV augment primary fold	GALR2 ag
Cc1cc(C)n(-c2nc3ccccc3c3nc(C)nn23)n1	nt	nt	102	2	i	0.99	-0.3
O=C(c1cccnc1)N1c2ccccc2Sc2ccccc21	12	99	98	0	i	1	nt
Cc1ccsc1/C=N/NC(=O)c1ccncc1	19	114	103	-4	i	1	nt
COC(=O)NNC(=O)c1ccccc1OC	nt	nt	92	-5	i	1	nt
COc1ccccc1NC(=O)c1c(N=Cc2ccccc2O)cnn1C	nt	nt	101	-11	i	0.92	nt
CN(C)c1ccc2c(c1)OC(N)=C(C#N)C2c1cccc(F)c1 (stereo not drawn)	-160	12	102	-6	nt	nt	1.4
CN1CCc2nc(SCC(=O)Nc3ccc(F)cc3)c(C#N)cc2C1	-24	164	92	-11	i	1.1	-2.5
COc1ccc(C(=O)SC2=NCCS2)cc1	60	109	98	-3	i	0.78	-2.8
O=C(Cc1cccc2ccccc12)N1CCCc2ccccc21	18	69	103	-4	i	0.95	-1.8
COC(=O)c1ccc(NC(=O)C(=O)N2CCCC2)cc1	0	103	69	4	i	0.92	-0.8

# Arranged by SMILES length (high to low): 3 of the compounds above
SMILES	Insulin prom inh	Insulin prom inh cell count	RGS16-Gao	PKD1 inh	HSV augment	HSV augment primary fold	GALR2 ag
Cc1cc(C)n(-c2nc3ccccc3c3nc(C)nn23)n1	nt	nt	102	2	i	0.99	-0.3
COC(=O)c1ccc(NC(=O)C(=O)N2CCCC2)cc1	0	103	69	4	i	0.92	-0.8
COC(=O)NNC(=O)c1ccccc1OC	nt	nt	92	-5	i	1	nt

# (cont.)
SMILES	Insulin prom inh	Insulin prom inh cell count	RGS16-Gao	PKD1 inh	HSV augment	HSV augment primary fold	GALR2 ag
CC(=O)c1cccc(NC(=O)CN(C)Cc2ccc(OC(F)F)cc2)c1	nt	nt	102	nt	i	1.1	nt
COc1ccc(N2CCN(Cc3nc(N)nc(Nc4ccc(C)c(Cl)c4)n3)CC2)cc1	nt	nt	106	4	i	0.77	-1.1
Cc1ccc(C(=O)N/C(=C\c2sccc2C)C(=O)NCc2ccncc2)cc1	37	57	78	-10	i	1	-1.4
COc1ccc(S(=O)(=O)N2CCN(C)CC2)c2ccccc12	nt	nt	102	-7	i	0.99	-1.4
CC(=O)Nc1ccc(S(=O)(=O)N2CCN=C2SCc2cccnc2)cc1	8	131	104	-2	nt	nt	nt
Cc1ccccc1NC(=O)c1c(C)[nH]c(=S)c(C#N)c1-c1ccco1	nt	nt	122	-14	i	1.1	-1.6
CCC(=O)OCCNc1nc(-c2ccccc2)nc2ccccc12	60	137	111	-2	i	0.94	nt
CCOC(=O)C(C(=O)OCC)C(Nc1ccc(Br)cc1)c1ccccc1 (stereo not drawn)	36	129	92	-6	i	1.1	-0.8
Cc1cc(C2N=C(N)Nc3nc4ccccc4n32)c(C)n1-c1ccccc1Cl (stereo not drawn)	10	131	102	-5	i	0.8	-1.4
CCOC(=O)c1sc(NC(=O)c2ccc(S(=O)(=O)N3CCCCC3)cc2)nc1-c1ccccc1	32	100	95	-8	i	1.1	0.5
N#C/C(=N\O)c1nc2ccccc2s1	nt	nt	112	-3	i	1.1	nt
COc1c2c(nc3occc13)C(CCC(C)(C)O)(OC)C(O)CC2 (stereo not drawn)	21	79	100	1	i	0.86	-1.9
CSc1ncccc1C(=O)Nc1ccc(S(=O)(=O)Nc2nccs2)cc1	15	123	102	1	i	0.86	-0.8
CCC(C)[C@H](NC(=O)Nc1ccc(S(N)(=O)=O)cc1)C(=O)OC (stereo partly drawn)	nt	nt	99	nt	i	0.93	nt
COc1cc(-n2c(C)nc3cc(C(=O)O)ccc32)cc(OC)c1OC	-59	108	98	-4	i	0.8	nt
Cc1cc(C)n(-c2nc3ccccc3nc2N2CCCCCC2)n1	nt	nt	99	7	i	0.97	-1.1
O=C(Nc1ccc2oc(-c3ccccc3F)nc2c1)c1cncc(Br)c1	13	108	110	1	i	0.89	-3.6
CCCCCNC(=O)c1ccc2c(=O)n(CCOC)c(=O)[nH]c2c1	-26	115	98	-6	i	0.98	-1.0
C(=N\N1CCOCC1)/c1cn(-c2ccccc2)nc1-c1ccccc1	43	59	119	-5	i	0.94	nt
Cc1ccc(S(=O)(=O)Nc2nc3ccccc3s2)cc1	-12	114	101	0	i	1	-1.9
O=C(CN1CCC(NC(=O)c2ccccc2Cl)CC1)NCc1ccco1	nt	nt	107	-3	i	1	nt
CC1CCCN(CC(=O)Nc2ccc(S(=O)(=O)N3CCCCCC3)cc2)C1 (stereo not drawn)	nt	nt	106	-6	i	0.77	0.5
COc1ccc(-c2onc3ccc(Cl)cc23)cc1	-11	153	108	2	nt	nt	-3.2
COc1ccc(N2CCN(C(=O)CSc3nnc4nc(C)cc(C)n34)CC2)cc1	-2	69	nt	-2	i	1.1	-1.6
Cc1nn2c3cc(N4CCOCC4)ccc3nc2c2ccccc12	nt	nt	nt	-9	i	0.98	-0.9
c1nnc2c3c4c(sc3ncn12)CCCC4	5	85	99	-6	i	0.94	-0.6
Cc1cccc(NC(=O)c2sccc2-n2cccc2)c1C	-56	79	69	8	i	0.96	-1.2
CC(C)c1ccc2c(c1)[C@H]1OCC[C@H]1[C@@H](c1cccs1)N2	-10	68	45	-5	i	0.63	-0.8
CCCC1C(C#N)=C(N)Oc2cc(C)n(C)c(=O)c21 (stereo not drawn)	10	122	104	-21	i	1	-0.5
COc1cc(CCC(=O)OCC(=O)NC(=O)c2ccc(Cl)cc2)cc(OC)c1OC	-136	39	110	-5	i	1	nt

# Quoted at random: 7 entries already listed
SMILES	Insulin prom inh	Insulin prom inh cell count	RGS16-Gao	PKD1 inh	HSV augment	HSV augment primary fold	GALR2 ag
CC1CCCN(CC(=O)Nc2ccc(S(=O)(=O)N3CCCCCC3)cc2)C1 (stereo not drawn)	nt	nt	106	-6	i	0.77	0.5
CN(C)c1ccc2c(c1)OC(N)=C(C#N)C2c1cccc(F)c1 (stereo not drawn)	-160	12	102	-6	nt	nt	1.4
Cc1nn2c3cc(N4CCOCC4)ccc3nc2c2ccccc12	nt	nt	nt	-9	i	0.98	-0.9
O=C(Nc1ccc2oc(-c3ccccc3F)nc2c1)c1cncc(Br)c1	13	108	110	1	i	0.89	-3.6
Cc1cc(C)n(-c2nc3ccccc3c3nc(C)nn23)n1	nt	nt	102	2	i	0.99	-0.3
O=C(Cc1cccc2ccccc12)N1CCCc2ccccc21	18	69	103	-4	i	0.95	-1.8
CC(=O)c1cccc(NC(=O)CN(C)Cc2ccc(OC(F)F)cc2)c1	nt	nt	102	nt	i	1.1	nt

# Next part:
SMILES	Insulin prom inh	Insulin prom inh cell count	RGS16-Gao	PKD1 inh	HSV augment	HSV augment primary fold	GALR2 ag
COC(=O)c1cccc(NC(=O)CSc2nc(C)cc(=O)[nH]2)c1	68	104	104	-5	i	0.76	-1.3
O=C(Nc1ccc(S(=O)(=O)NCc2ccccc2)cc1)c1ccccc1[N+](=O)[O-]	-32	72	54	0	i	0.98	-0.4
O=C(c1ccco1)N(Cc1cccc([N+](=O)[O-])c1)c1ccc(Br)cc1	nt	nt	100	6	i	1.1	nt
Cc1ccccc1N1C(=O)c2ccccc2NC1c1ccncc1 (stereo not drawn)	-75	113	105	-5	i	0.97	-1.4
CCOC(=O)c1ccc(Oc2nc(NC)nc(OC)n2)cc1	-52	143	97	-8	i	0.93	-0.4
Cc1ccc(S(=O)(=O)Nc2ccc(O)c(Sc3ncn[nH]3)c2)cc1	28	153	100	0	i	0.95	nt
O=Nc1ccc(O)c2ncccc12	nt	nt	94	nt	i	1.1	nt
COc1cccc(/C=N/NC(=O)CSc2nnc(C)n2-c2ccccc2)c1OC	-17	47	100	-3	i	1.1	-2.9
CN(C(=O)CCN1C(=O)C2C3C=CC(C3)C2C1=O)c1ccccc1 (stereo not drawn)	nt	nt	97	6	i	0.87	nt
CCn1c(CNC(=O)c2ccco2)nnc1SCC(=O)Nc1ccc(Br)cc1F	-23	85	103	-7	i	0.93	-3.0
O=C(c1cc2ccccc2o1)N1CCN(S(=O)(=O)/C=C/c2ccccc2)CC1	7	139	100	3	i	0.94	nt
CCOC(=O)N1CCN(C(=O)c2ccc3c(=O)n(CC4CCCO4)c(=S)[nH]c3c2)CC1 (stereo not drawn)	30	49	98	-6	i	0.97	-1.2
Nc1nonc1C(=O)NCCNc1ncccc1[N+](=O)[O-]	18	83	102	-9	i	1.1	nt
CC(C)N(C1=N/C(=C\c2ccco2)C(=O)N1c1ccccc1)C(C)C	-14	49	102	-3	i	1.1	8.7
O=C(CN1CCCCC1)Nc1cccc2c1OCO2	3	91	103	3	i	0.95	-1.4
CC(C)=CCN1CCN(Cc2cc(F)ccc2-n2nc(C)cc2C)CC1CCO (stereo not drawn)	-70	179	107	0	i	0.95	nt
CCn1cc(C(=O)Nc2cc3c(cc2NC(C)=O)OCCO3)c(=O)c2ccc(C)nc21	0	127	nt	0	nt	nt	0.0
COc1ccc(C(=O)c2ccc(CC#N)s2)cc1	0	161	102	0	i	0.95	-1.0
COc1ccc(C2=NN(c3nc(-c4ccccc4)c(CC(=O)O)s3)C(c3ccco3)C2)cc1 (stereo not drawn)	-22	128	95	-1	i	1.1	-1.8
Cc1cccn2c(=O)c3cc(C(=O)NCC4CCCO4)c(=N)n(CCN4CCOCC4)c3nc12 (stereo not drawn)	-17	127	105	-7	nt	nt	-1.5
Cc1ccc(-c2noc(CCC(=O)NCc3ccc4c(c3)OCO4)n2)cc1	-81	135	99	-8	i	1	-4.0
CCN1CCCC1CNC(=S)Nc1ccc(C(C)=O)cc1 (stereo not drawn)	nt	nt	101	1	i	0.99	nt
COc1ccc(CN2CCN(Cc3cccn3-c3ncccn3)CC2CCO)c(C)c1C (stereo not drawn)	nt	nt	96	-9	i	0.99	nt
CC(=O)c1cccc(-n2nnnc2SCC(=O)NNC(=O)C(C)C)c1	0	82	99	0	i	0.99	nt
COc1ccc(CNC(=O)COC(=O)C2=COCCO2)cc1	0	101	86	-7	i	1	-2.8
COC(=O)c1c(C)oc2ccc(N(C(=O)c3ccncc3)S(=O)(=O)c3ccccc3)cc12	-10	110	98	3	i	1	-0.2
O=C(c1cc(Br)ccc1Cl)N1CCCC1	nt	nt	104	4	i	1	nt
Cc1cc(Oc2ccc(Br)cc2)nc(SCC(=O)c2ccccc2)n1	14	148	100	-3	i	1.1	0.7
C=CCn1c(COc2ccc(CC)cc2)nnc1SCC(=O)NC1CCS(=O)(=O)C1 (stereo not drawn)	-257	63	100	-9	i	1.1	-3.1
O=C(NC(Cc1c[nH]c2ccccc12)C(=O)NCc1ccc(F)cc1)OCc1ccccc1 (stereo not drawn)	-44	62	101	-6	i	1	-1.7
CCOC(=O)CN1CC23C=CC(O2)C(C(=O)NC2CCCCCC2)C3C1=O (stereo not drawn)	nt	nt	78	-8	i	0.84	-1.2

# Source: PubChem
